Screens as filed in PubChem.
D2 agonist – agonists of human D2 dopamine receptor (beta-arrestin). activation, % (no concentration beside the values). 0.084% of 360,000 active. P14416. DiscoveRx PathHunter D2 beta-arrestin, luminescence, 90 min; 100% = 57 uM dopamine signal; in the data active = activation above about 40%; inconclusive = about 15% to 40%; inactive = below about 15%; also: compound concentration not given in the record; the text of the record calls up to 30% inactive
Target sequence (P14416 whole entry, looked up): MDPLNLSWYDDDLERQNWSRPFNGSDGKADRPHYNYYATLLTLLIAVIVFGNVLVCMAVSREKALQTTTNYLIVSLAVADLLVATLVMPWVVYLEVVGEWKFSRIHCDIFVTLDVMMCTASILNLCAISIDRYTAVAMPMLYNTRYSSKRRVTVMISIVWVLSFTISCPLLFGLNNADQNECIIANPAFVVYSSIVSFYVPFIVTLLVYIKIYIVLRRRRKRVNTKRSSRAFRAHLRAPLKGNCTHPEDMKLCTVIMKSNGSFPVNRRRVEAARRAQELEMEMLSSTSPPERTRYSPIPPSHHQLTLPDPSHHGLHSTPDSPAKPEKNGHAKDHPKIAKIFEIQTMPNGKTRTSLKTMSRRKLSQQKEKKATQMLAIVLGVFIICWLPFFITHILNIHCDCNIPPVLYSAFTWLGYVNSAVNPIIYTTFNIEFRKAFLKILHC
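DiscoveRx PathHunter D2 beta-arrestin cells (2,100/well) attached overnight, then compound-stimulated 90 min at 37 C in HBSS/10 mM HEPES/0.1% Tween-20 buffer; beta-galactosidase complementation read by luminescence after 1 h at ambient temperature. Dopamine 57 uM final (EC100) as control.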
PINK1 modulator – PINK1 expression modulation; 0.2% of 410,000 active; PINK1 immunofluorescence, high-content cytometry, 24 h; Potency, µM (titrated, usually from 76.6 µM), for the others: top-dose activation (PINK1 increase), hits mostly activators; AID 624263; active = well fitted activation curve with a large enough effect; inconclusive = small, poorly fitted or top-dose-only effect; inactive = flat fitted curve, though single readings scatter; cell line not stated here;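 also: potency is read from the fitted curve at half-maximal effect; % of control where 0% means no effect; nearly all actives have a fitted effect of over 65% in size; a mitochondrial uncoupler was the plate control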
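Decision-based qHTS: stable cells, 24 h exposure to five compound concentrations, CCCP as control. Fixed cells stained for PINK1 plus nuclear, mitochondrial and cell markers, cytometer read.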
Menin MLL FP FL – menin-MLL binding inhibition, fluorescein peptide. Fluorescence polarization, fluorescein-MLL peptide displacement from menin. FP activity change, % at 61.4 µM. 290,000 tested, under 10 active; inconclusive = falling polarisation curve, or a change in total fluorescence; inactive = total fluorescence flat and polarisation flat or rising; no compound was filed as active; the % refers to the polarisation; negative = inhibition;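 also: % of control where 0% means no effect; inhibitors lower the polarisation; unlabelled MLL peptide was the positive control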
gsp antagonist – antagonists of gsp mutant (McCune-Albright syndrome) | 0.4% of 340,000 active | Potency, µM (series often up to 76.9 µM), inactives show at the highest dose activity change, negative = inhibition, actives largely listed as inhibitors | gsp-mutant cells, cAMP HTRF, 30 min; control for the full effect not named in the record; active = falling curve of any shape with a large fitted effect; inconclusive = falling curve, mostly with a smaller effect; inactive = flat or rising curve; cell line not stated here;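 also: intracellular cAMP measured with PDE inhibitor Ro 20-1724 present during compound exposure; potency is read from the fitted curve at half-maximal effect; % is scaled to controls: 0 for no effect and ±100 for the full control effect; nearly all actives have a fitted effect of over 65% in size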
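HTRF cAMP read-out (cAMP-d2 plus anti-cAMP antibody-K in lysis buffer, 30 min RT). Before lysis, cells are exposed to compounds with […] for 30 min at 37C in DPBS containing Ca/Mg, BSA and Tween 20.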
Sfp PPTase inh – blocks B. subtilis Sfp PPTase activity | Potency, µM, without a hit: max response, negative = inhibition, most hits filed as inhibitors | Biochemical Sfp PPTase activity, qHTS | 3.5% of 310,000 active | AID 1490 | Q9F4F7; active = well fitted inhibition curve with a large enough effect; inconclusive = small, poorly fitted or top-dose-only effect, or another doubt; inactive = no such curve, though single readings can be large or run the other way;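 also: the enzyme is Sfp with the accession as filed and its product quenches rhodamine fluorescence; potency is read from the fitted curve at half-maximal effect; 0% = enzyme reaction without inhibitor and -100% = no enzyme wells; top concentration of the series not given in the record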
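With Hepes-Na pH 7.6 buffer containing 10 mM MgCl2, Sfp (15 nM) modified BHQ-2-YbbR (12.5 uM) using rhodamine-CoA (5 uM). Two reads 30 minutes apart at 525/598 nm yielded each well's rate.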
ClpP mod – qHTS Assay for Activators of ClpP; Potency, µM (titrated, usually from 57.5 µM), without a hit: at the top dose activity change, negative = active; purified B. subtilis ClpP, FRET peptide cleavage, 20 min; ATP-dependent Clp protease proteolytic subunit (Bacillus subtilis (strain 168)), P80244; 1.9% of 340,000 active; active = well fitted falling curve with a large enough effect; inconclusive = small, poorly fitted or top-dose-only effect; inactive = no such curve, though single readings can be large or run the other way; also: potency is read from the fitted curve at half-maximal effect; the source files actives as falling curves though it sought activators and does not explain the sign; nearly all actives have a fitted effect of over 65% in size; many hits overshoot -100%
Target sequence (P80244 whole entry, looked up): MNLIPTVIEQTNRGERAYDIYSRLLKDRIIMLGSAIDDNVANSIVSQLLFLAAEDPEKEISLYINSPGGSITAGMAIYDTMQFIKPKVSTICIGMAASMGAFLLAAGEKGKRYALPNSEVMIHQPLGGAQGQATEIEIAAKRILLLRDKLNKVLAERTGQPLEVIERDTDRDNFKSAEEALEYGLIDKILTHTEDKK
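ClpP 10 microg/mL final, pH 8 Tris/KCl buffer with BSA, glycerol, Tween-20; compound pinned in; FRET-FV substrate; RT 20 min; Ex320/Em430; ΔFRET vs ADEP 5.8 microM, DMSO, no enzyme.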
gsp agonist – agonists of gsp mutant (McCune-Albright syndrome). gsp mutant cells, cAMP HTRF, 30 min; control for the full effect not named in the record. Potency, µM (series often up to 76.9 µM), inactives show at the highest dose activation (cAMP increase), most hits filed as activators. 0.13% of 340,000 active; active = well fitted activation curve with a large enough effect; inconclusive = small, poorly fitted or top-dose-only effect, or another doubt; inactive = no such curve, though single readings can be large or run the other way; cell line not stated here;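 also: phosphodiesterase inhibitor Ro 20-1724 added with compounds to block cAMP breakdown; potency is read from the fitted curve at half-maximal effect; nearly all actives have a fitted effect of over 60% in size; about a fifth of the inactives were tested at one dose only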
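Cells in DMEM/10% FBS with G418 were pretreated with compounds in DMSO plus […] (300 uM stock) for 30 min at 37C. cAMP was measured by HTRF (cAMP-d2 plus anti-cAMP antibody-K) after 30 min at room temperature.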
Starred values were filed as active, the others as inactive; & = joins results of further samples; [ ] = another dose, or the depositor's remark.

How did CC(=O)Nc1cccc(-c2nc3ccc(NC(C)=O)cc3s2)c1 do in these assays?
D2 agonist: 1.8; PINK1 modulator: 1.5%; Menin MLL FP FL: -0.5; gsp antagonist: -20.5%; Sfp PPTase inh: 20.8%; ClpP mod: 3.6%; gsp agonist: 3.3%

What do the screens show for `CSCCC(NS(=O)(=O)c1cccs1)C(=O)NCc1ccccc1` (stereo not drawn)?
D2 agonist: -0.4; PINK1 modulator: -1.0%; Menin MLL FP FL: -0.9; gsp antagonist: -8.7%; Sfp PPTase inh: 4.2%; ClpP mod: -0.3%; gsp agonist: -5.9%[15.4 µM]

What do the screens show for `CCCCn1c(N)c(N(CCOC)C(=O)COC(=O)CSc2cc(C)c3ccccc3n2)c(=O)[nH]c1=O`?
D2 agonist: -4.0; PINK1 modulator: -3.7%; gsp antagonist: 3.8%; gsp agonist: 6.3%[15.4 µM]

What do the screens show for `O=C(c1ccc(N2CCN(C3CC(=O)N(Cc4cccs4)C3=O)CC2)cc1)c1cccnc1` (stereo not drawn)?
D2 agonist: -4.4; PINK1 modulator: 1.1%; Menin MLL FP FL: -10.6; gsp antagonist: inconclusive; Sfp PPTase inh: 0.0%; ClpP mod: 0.1%; gsp agonist: inconclusive

How did C[C@@H](C(=O)N[C@@H](Cc1ccccc1)C(=O)O)n1nnc2ccccc2c1=O do in these assays?
D2 agonist: -3.9; PINK1 modulator: 0.4%; Menin MLL FP FL: 2.3; gsp antagonist: 16.8%; Sfp PPTase inh: 16.0%; ClpP mod: 1.5%; gsp agonist: -2.7%

How did Cc1c(C(=O)NCc2ccco2)oc2ccc(S(=O)(=O)N3CCC4(CC3)OCCO4)cc12 do in these assays?
D2 agonist: -0.1; PINK1 modulator: -1.6%; Menin MLL FP FL: 0.7; gsp antagonist: -19.3%; Sfp PPTase inh: -13.7%; ClpP mod: 0.8%; gsp agonist: -29.5%

What do the screens show for `Fc1ccc(-n2cc(-c3ccccc3)[n+]3c2SCC3)cc1`?
D2 agonist: -3.2; PINK1 modulator: 0.6%; Menin MLL FP FL: -3.9; gsp antagonist: 8.3%; Sfp PPTase inh: 17.0%; ClpP mod: 0.6%; gsp agonist: 21.1%

What do the screens show for `OC[C@@H]1CN(Cc2ccncc2)C[C@H](n2cnc3c(NCc4ccncc4)ncnc32)O1`?
D2 agonist: -4.0; PINK1 modulator: 2.6%; ClpP mod: -11.6%

Results for CCOC(=O)C(=Cc1ccccc1)C(=O)c1ccccc1 ?
D2 agonist: -4.6; PINK1 modulator: -1.0%; ClpP mod: -0.2%; gsp agonist: -32.4%[inhibitor]

What do the screens show for `Cc1noc(C)c1C(=O)Nc1ccccc1C(=O)NCCc1ccccc1`?
D2 agonist: 1.1; PINK1 modulator: 0.9%; Menin MLL FP FL: 0.0; gsp antagonist: 3.0%; Sfp PPTase inh: 22.0%; gsp agonist: -20.1%

How did CCOC(=O)N1CCN(C(=O)Cc2cccc3ccccc23)CC1 do in these assays?
D2 agonist: -1.5; PINK1 modulator: 0.3%; Menin MLL FP FL: 0.7; gsp antagonist: -10.4%; Sfp PPTase inh: 11.2%; ClpP mod: -1.5%; gsp agonist: 0.3%

Results for COc1cccc(OC)c1C(=O)Nc1ccccc1C(=O)N1CCCC1 ?
D2 agonist: 0.4; PINK1 modulator: -0.7%; gsp antagonist: 5.0%; Sfp PPTase inh: 1.7%; ClpP mod: -1.4%; gsp agonist: 1.1%

What do the screens show for `O=C(CSc1nnc(COc2ccc(Cl)cc2)o1)NC1CCCCC1`?
D2 agonist: 1.4; PINK1 modulator: -4.9%; gsp antagonist: 1.5%; ClpP mod: inconclusive; gsp agonist: -36.6%[inhibitor]

How did O=C(NCc1ccco1)c1cc(S(=O)(=O)N2CCCCC2)ccc1Cl do in these assays?
D2 agonist: -4.3; PINK1 modulator: 1.3%; gsp antagonist: 9.8%; ClpP mod: 0.5%; gsp agonist: -15.9%

Results for Fc1ccc(CNC(=S)Nc2ccc(Cl)cc2Cl)cc1 ?
D2 agonist: 2.6; PINK1 modulator: inconclusive; Menin MLL FP FL: 1.3; gsp antagonist: -13.4%; Sfp PPTase inh: -5.1%; ClpP mod: -1.9%; gsp agonist: 1.8%

What do the screens show for `Cn1nc(C(F)(F)F)c(-c2ccc(Br)cc2)c1NC(=O)c1cccnc1`?
D2 agonist: 0.1; PINK1 modulator: -1.1%; Menin MLL FP FL: 6.2; gsp antagonist: -1.5%; Sfp PPTase inh: 1.9%; ClpP mod: 0.0%; gsp agonist: -8.7%

What do the screens show for `O=C(CSc1nc2nn(-c3ccccc3)c(=O)c-2c2n1CCCCC2)Nc1ccc(OC(F)F)cc1`?
D2 agonist: -2.6; PINK1 modulator: 2.9%; gsp antagonist: inconclusive; ClpP mod: 0.1%; gsp agonist: 10.0%[15.4 µM]

Results for O=C(CSC1CC(=O)N(CCc2ccccc2)C1=O)Nc1ccc(Br)cc1 (stereo not drawn) ?
D2 agonist: -1.2; PINK1 modulator: 0.6%; Menin MLL FP FL: 2.8; gsp antagonist: inconclusive; Sfp PPTase inh: 16.0%; ClpP mod: -3.0%; gsp agonist: -14.9%

What do the screens show for `O=C(NCC(c1cccs1)N1CCOCC1)c1cc([N+](=O)[O-])cc([N+](=O)[O-])c1` (stereo not drawn)?
D2 agonist: 11.7; PINK1 modulator: 0.6%; Menin MLL FP FL: -1.0; gsp antagonist: 1.1%; Sfp PPTase inh: 3.1%; ClpP mod: -3.8%; gsp agonist: 0.0%

What do the screens show for `CCC(C)(C)C1CCc2[nH]nc(C(=O)O)c2C1` (stereo not drawn)?
D2 agonist: -2.8; PINK1 modulator: 0.5%; gsp antagonist: -8.3%; ClpP mod: -3.5%

How did Cc1cc(C)n2nc(Sc3ncccc3[N+](=O)[O-])nc2n1 do in these assays?
D2 agonist: 2.8; PINK1 modulator: -0.4%; Menin MLL FP FL: -1.2; gsp antagonist: -1.1%; Sfp PPTase inh: 16.5%; ClpP mod: 3.2%; gsp agonist: -11.1%

How did O=[N+]([O-])c1ccc(CSc2nc3ccccc3[nH]2)cc1 do in these assays?
D2 agonist: 0.8; PINK1 modulator: -1.6%; Menin MLL FP FL: -1.1; gsp antagonist: -3.8%; Sfp PPTase inh: -2.4%; ClpP mod: 1.1%; gsp agonist: 8.0%

Results for O=C(Nc1ccccc1)c1n[nH]c(Cn2cncn2)n1 ?
D2 agonist: -1.8; PINK1 modulator: -1.3%; Menin MLL FP FL: 1.6; gsp antagonist: 1.8%; Sfp PPTase inh: -12.9%; ClpP mod: 1.3%; gsp agonist: 0.9%

What do the screens show for `CC(C)COC(=O)c1cccc2c1-c1ccccc1/C2=N\O`?
D2 agonist: -2.7; PINK1 modulator: 8.1%; Menin MLL FP FL: 10.7; gsp antagonist: -10.1%; Sfp PPTase inh: -6.8%; ClpP mod: -1.1%; gsp agonist: 7.2%

Results for CN(C)C(=O)c1snnc1-c1ccccc1 ?
D2 agonist: -1.1; PINK1 modulator: 1.5%; Menin MLL FP FL: 5.4; gsp antagonist: 1.0%; Sfp PPTase inh: 5.4%; ClpP mod: -9.8%; gsp agonist: 17.9%

How did COc1ccc(-n2c(C)nc3cc(C(=O)N4CCOCC4)ccc32)cc1 do in these assays?
D2 agonist: 0.0; PINK1 modulator: -2.5%; Menin MLL FP FL: -2.3; gsp antagonist: 7.1%; Sfp PPTase inh: 22.3%; ClpP mod: 1.9%; gsp agonist: 2.0%

How did O=C(c1cnccn1)N1CCC2(CCCN(c3ccncc3)C2)CC1 do in these assays?
PINK1 modulator: -0.3%; Menin MLL FP FL: 0.4; Sfp PPTase inh: 3.7%

What do the screens show for `O=C1NC(Nc2nccs2)(C(F)(F)F)C(=O)N1CCc1ccccc1` (stereo not drawn)?
D2 agonist: 1.8; PINK1 modulator: -0.7%; Menin MLL FP FL: -0.4; gsp antagonist: -9.2%; Sfp PPTase inh: 9.8%; ClpP mod: 3.1%; gsp agonist: -2.9%

What do the screens show for `Cc1ccccc1-c1cnc(C(O)c2c(C)cccc2C)[nH]1` (stereo not drawn)?
D2 agonist: -5.9; PINK1 modulator: 0.6%; ClpP mod: -4.5%

How did O=C(CCNC(=O)c1ccccc1Cl)Nc1cc(C(F)(F)F)ccc1N1CCCC1 do in these assays?
D2 agonist: 2.9; PINK1 modulator: 1.7%; Menin MLL FP FL: -2.7; gsp antagonist: -2.8%; Sfp PPTase inh: -2.2%; ClpP mod: -2.4%; gsp agonist: -0.6%

Results for CCOc1ccc(S(=O)(=O)N2CCN(C(=O)C3CCC3)CC2)cc1 ?
D2 agonist: 0.0; PINK1 modulator: -2.1%; gsp antagonist: 5.1%; ClpP mod: 0.1%; gsp agonist: -46.3%[inhibitor]

Results for Cc1cccc2cc(CN(CCCO)C(=O)Nc3ccccc3Cl)c(=O)[nH]c12 ?
D2 agonist: 1.3; PINK1 modulator: 0.4%; Menin MLL FP FL: 6.5; gsp antagonist: -8.4%; Sfp PPTase inh: 6.1%; ClpP mod: -19.5%; gsp agonist: inconclusive

What do the screens show for `Cc1cc(N2CCCC2)ccc1/C=C1/C(=O)N(C)C(=S)N1C`?
D2 agonist: -3.6; PINK1 modulator: 17.3%; Menin MLL FP FL: inconclusive; gsp antagonist: -7.0%; Sfp PPTase inh: -9.5%; gsp agonist: 12.0%

How did O=c1c2ccccc2sn1-c1cc(S(=O)(=O)N2CCOCC2)ccc1N1CCCC1 do in these assays?
D2 agonist: -3.6&-8.2; PINK1 modulator: 22.0%[38.3 µM]; Menin MLL FP FL: -0.6; gsp antagonist: inconclusive; Sfp PPTase inh: 0.199µM*; ClpP mod: -2.0%; gsp agonist: inconclusive

What do the screens show for `COc1ccc(S(=O)(=O)N2Cc3ccccc3CC2C(=O)Nc2nccs2)cc1` (stereo not drawn)?
D2 agonist: -1.9; PINK1 modulator: 0.4%[38.3 µM]; Menin MLL FP FL: 8.2; gsp antagonist: -14.7%; Sfp PPTase inh: 14.8%; ClpP mod: 1.2%; gsp agonist: inconclusive

Results for COc1ccc(C2(CNC(=O)c3ccc(C)cc3)CCOCC2)cc1 ?
D2 agonist: -3.6; PINK1 modulator: -0.3%; Menin MLL FP FL: 1.2; gsp antagonist: 4.2%; Sfp PPTase inh: 12.5%; gsp agonist: 1.5%[15.4 µM]

What do the screens show for `Cc1cc(=O)n2nc(N3CCCC(C(=O)NC4CCC(C)CC4)C3)sc2n1` (stereo not drawn)?
D2 agonist: 2.3; PINK1 modulator: 0.4%; gsp antagonist: 0.7%; Sfp PPTase inh: -8.0%; ClpP mod: -4.6%; gsp agonist: -38.6%[inhibitor]
